Screening results as filed in PubChem.
Vaccinia pol inh: vaccinia E9 polymerase processive synthesis inhibitors, primary screen, biochemical, absorbance. in vitro processive DNA synthesis, absorbance read-out; stronger effect = lower value; some inactives read as strong as hits. 46,000 tested, 0.94% active. Vaccinia virus DNA polymerase (E9) processive complex. normalized absorbance, % (test concentration not listed);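 active = replicate mean up to 90% and picked by the depositor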;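 also: 100% = median of the test wells of a plate; 100 nL library stock went into each well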
The depositor's hits bear a star. Only part of the results is shown; rates above refer to the full screens.

mol,Vaccinia pol inh
O=C(COc1ccc(-c2ccccc2)cc1)Nc1ncccn1,101
COc1cccc(C2CC(c3cccs3)=NN2C(=O)CSC2CCCCC2)c1OC (stereo unspecified),100
Cc1nn(C(=O)c2ccc(C(C)(C)C)cc2)c(N)c1-c1ccccc1,100
O=C1Nc2ccccc2/C1=C/c1cccc(Cl)c1,87
Cc1ccc(NCC(O)Cn2c3ccccc3c3ccccc32)cc1 (stereo unspecified),100
c1ccc2sc(SCc3cn4cccnc4n3)nc2c1,98
CSc1ccc(Cn2cccc2C2=NC(C(C)C)CO2)cc1 (stereo unspecified),96
CC(=O)Nc1ccc(NC(=O)CCC(=O)c2ccccc2)cc1,100

A draw from above in order of length of the SMILES, low to high.
mol,Vaccinia pol inh
c1ccc2sc(SCc3cn4cccnc4n3)nc2c1,98
O=C1Nc2ccccc2/C1=C/c1cccc(Cl)c1,87
CC(=O)Nc1ccc(NC(=O)CCC(=O)c2ccccc2)cc1,100
Cc1nn(C(=O)c2ccc(C(C)(C)C)cc2)c(N)c1-c1ccccc1,100

More records
mol,Vaccinia pol inh
CC(C)(C)c1csc(-c2ccc(-c3cccs3)s2)n1,100
CCN1CCCC1CNC(=O)c1noc2c1COc1ccc(C)cc1-2 (stereo unspecified),63*
COc1ccc2ccccc2c1C(O)c1cccs1 (stereo unspecified),98
O=C(Nc1ccc(N2CCOCC2)cc1)c1cnc2ccccc2n1,98
O=C(NCc1ccc2c(c1)OCO2)c1cc2ccccc2s1,101
Clc1ccccc1OCCBr,99
O=C1c2ccccc2C(=O)N1CN1CCN(Cc2ccc3c(c2)OCO3)CC1,98
COc1ccc(CCNC(=O)C2C3C=CC(C3)C2C(=O)O)cc1OC (stereo unspecified),100
O=C(CCN1C(=O)c2ccccc2C1=O)N1CCC(c2ccccc2)C1 (stereo unspecified),100
COc1ccccc1-c1nn(CN(c2ccccc2)c2ccccc2)c(=S)o1,98
Cc1cc2c(cc1S(=O)(=O)CCC(=O)NCc1ccco1)OCC(=O)N2,97
Nc1nc(N2CCOCC2)ncc1S(=O)(=O)c1ccc(Cl)cc1,95
CO/N=C(/C(=O)N[C@@H]1C(=O)N2C(C(=O)O)=C(COC(C)=O)CS[C@H]12)c1csc(N)n1,99
CN(C(=O)c1cc(=O)c2ccccc2o1)C1(c2ccccc2Cl)CCCCC1=O (stereo unspecified),100
O=C(Nc1ccc(-c2nc3ccccc3s2)cc1)Nc1cc(F)cc2c1OCOC2,101
CCOc1ccccc1CCC(=O)O,99
Cc1ccc(-c2ccc(OC(=O)c3ccccc3F)cc2)cc1,100
N#CCC(=O)Nc1ccc2c(c1)OCCO2,101
CCNc1oc(COc2ccc(OC)cc2)nc1C#N,85
COC(=O)CC(c1ccc(C#N)cc1)n1c(C)ccc1C (stereo unspecified),110
COC(=O)CCC(=O)Nc1sc2c(c1C(=O)OC)CCCC2,86
NC(=O)c1cnc2n(c1=O)CCS2,100
COC(=O)C(CC(C)C)NC(=O)c1ccco1 (stereo unspecified),95
N#Cc1c(-c2ccccc2)noc1/C=C/NCc1ccccc1,116
COC(=O)c1cc(=O)c2c(SC)nc(-c3ccccc3)nc2[nH]1,100
O=C(NCCCN1CCCC1=O)c1sc2ccccc2c1Cl,98
Cc1cccc(-n2ncc3c(N4CC(C)OC(C)C4)ncnc32)c1 (stereo unspecified),100
CC(=O)Nc1ccc(NC(=O)CN(C)S(=O)(=O)c2ccc(F)cc2)cc1,97
Cc1ccccc1N1C(=O)C(Cc2ccccc2)S/C1=C(/C#N)C(N)=O (stereo unspecified),74
O=C1c2ccccc2C(=O)N1CC(O)CN1CCN(c2ccccc2Cl)CC1 (stereo unspecified),100
O=c1cc(-c2ccccc2)c2ccc(O)c(CN3CCOCC3)c2o1,101
CCOc1cc2c(cc1OCC)-n1cccc1C(c1cc(C)c(OC)cc1C)NC2 (stereo unspecified),98
CCn1c(=NC(=O)c2ccc(S(=O)(=O)N3CCCC3)cc2)sc2ccccc21,100
Cc1nn(-c2ccccc2)c(OC(=O)C2CC2)c1S(=O)(=O)c1ccccc1,94
CCN(Cc1cc(OC)c(OC)c(OC)c1)C(=S)Nc1cccc(SC)c1,103
O=C(Nn1ncc2ccccc21)c1ccccc1,99
C=CCn1c(N)c(C(=O)Nc2ccc(C)cc2)c2nc3ccccc3nc21,101
NC(=O)CN(Cc1ccccc1F)S(=O)(=O)c1ccc(Cl)cc1,100
Cc1ccc(C(=O)Cn2c(C)csc2=Nc2ccccc2)cc1,100
Cc1ccc(CSc2nc3ccncc3n2Cc2ccc(C(=O)O)cc2)cc1,105
CC1(C)CC2CC(C)(CN2C(=O)c2ccccc2NC(=O)c2ccco2)C1 (stereo unspecified),104
Cc1cc(C)nc(SC(C)C(=O)O)n1 (stereo unspecified),105
CC1(C)CC(=O)c2cc(C#N)c(SCC(=O)N3CCc4ccccc43)nc2C1,98
CCOC(=O)/C=C(\C)N1N=C2c3ccc(OC)cc3CCC2C1c1ccc(OC)cc1 (stereo unspecified),100
CC(C)(C)c1sc(N)nc1-c1ccccc1,105
O=C(C1CC(=O)N(c2ccc(OCc3ccccc3Cl)cc2)C1)N1CCOCC1 (stereo unspecified),98
O=C(COC(=O)c1ccccc1C(=O)c1ccccc1)NCc1ccccc1,94
C/C(=N\O)c1ccc2c(c1)OCCOCCOCCO2,100
CCCN(CCC)S(=O)(=O)c1ccc(C(=O)Nc2nccs2)cc1,88
Cc1ccc(S(=O)(=O)NC2c3cccc4cccc(c34)C2Sc2ccccn2)cc1 (stereo unspecified),100
Cc1cc(=O)cc(C)n1-c1ccc(F)cc1F,98
Cc1cc(C)nc(SCCS(=O)c2ccc(C(C)(C)C)cc2)n1 (stereo unspecified),110
COc1ccc(CCN=C2CCc3ccccc3N2)cc1OC,100
O=C(CCOc1ccccc1)Nc1nc2c(ccc3ccccc32)s1,99
CC1=C(C(=O)N2CCCCC2)C(c2ccc(Br)cc2)C2=C(CCCC2=O)N1 (stereo unspecified),98
COc1ccc(NCC(C#N)C(=O)NCc2ccc(Cl)cc2)cc1 (stereo unspecified),100

New compounds follow
mol,Vaccinia pol inh
O=c1oc2cc(O)ccc2c(-c2ccccc2)c1-c1ccccc1,104
Cc1nc2ccccn2c1-c1nnco1,104
Cc1ccc(-c2noc(CNC(=O)C(c3ccccc3)c3ccccc3)n2)cc1,85
N#Cc1c(Nc2ccccc2)c(C=NCCN2CCOCC2)c[nH]c1=O,102
CCOC(=O)c1c(C)n(-c2ccc(OC)cc2)c2ccc(OC)cc12,100
O=C(Nc1ccc2nc(SCC(=O)N3CCc4ccccc43)sc2c1)c1ccccc1Cl,100
CC(=O)N1/C(=C/c2ccc(N(C)C)cc2)C(=O)c2ccccc21,99
S=C(Nc1ccccc1)N1CCC(c2ccccc2)=N1,100
CCC(=O)N1c2ccccc2NC2=C(C(=O)CC(c3ccccc3)C2)C1c1ccccc1 (stereo unspecified),100
COc1cc(OC)nc(NCC(NC(=O)c2ccccc2)C(N)=O)n1 (stereo unspecified),105
CCOC(=O)c1c(NC(=O)c2ccn(CC)n2)sc2c1CCC2,101
Cc1cccc(NC(=O)c2cc3sccc3n2C)c1C,100
C=C(C)Cn1c(-c2ccccc2)nc2ccccc21,93
O=C1/C(=C/c2ccccc2)SC(=Nc2ccc(O)cc2)N1c1ccc(O)cc1,101
CCn1nc(C)c(Br)c1-c1nc(-c2ccccc2)no1,94
Cc1[nH]c(=S)[nH]c(=O)c1Oc1ccccc1,98
COc1ccc(CC(=O)NCC2CCCO2)cc1 (stereo unspecified),93
O=C(c1ccc(Cl)c(Cl)c1)c1nn2c(nc(=O)c3ccccc32)s1,97
Cc1sc2ncnc(SCC(=O)N3CCOCC3)c2c1C,100
CCc1ccc(NC(=O)Cn2c(=O)n(C3CCCCC3)c(=O)c3cccnc32)cc1,106
CCC1CCCCN1C(=O)c1cc(-c2ccc(Cl)c(Cl)c2)on1 (stereo unspecified),101
COc1ccc(NC(=O)n2ccc(C(=O)N3CCOCC3)n2)cc1,100
CCNc1nc2ccccc2n1Cc1cccc(Cl)c1,94
O=C(COc1cccc(Oc2ccccc2)c1)N1CCN(Cc2ccccc2)CC1,106
CC(C)CC(C(=O)c1ccccc1)c1ccccc1 (stereo unspecified),106
NC(=O)c1ccc(NC(=O)COC(=O)/C=C/c2ccc(Cl)cc2)cc1,96
CC(C)C(=O)NCCCc1nc2ccccc2n1C,102
O=C1CCCCCN1CP(=O)(O)CN1CCCCC1,95
CC(=O)N(O)CCCCCNC(=O)CCC(=O)N(O)CCCCCNC(=O)CCC(=O)N(O)CCCCCN,98
COC(=O)c1ccccc1NC(=O)NC1CCCCC1,98
COc1cccc(C(=O)CC(C#N)c2ccc(F)cc2)c1 (stereo unspecified),95
c1coc(-c2nc3ccc4ccccc4c3c3c2CCCC3)c1,98
CN1CCc2c(OCC(=O)N3CCC(Cc4ccccc4)CC3)cccc2C1=O,92
CCOc1ccccc1N1CCN(C(=O)c2cc3c(s2)CCC3)CC1,98
Cc1ccsc1CCNC(=O)c1cc(-c2ccc(Cl)cc2)n[nH]1,90
Brc1ccccc1C1OCC2(CO1)COC(c1ccccc1Br)OC2 (stereo unspecified),100
COc1ccc(C(=S)N2CCC(C)CC2)cc1,100
O=C(c1ccccc1)c1cn(Cc2cccc(F)c2)c2ccc(F)cc2c1=O,103
O=C(c1cccc(Cl)c1)N(Cc1cc2ccccc2[nH]c1=O)C1CCCCC1,94
CC(=O)Nc1c(C(=O)O)[nH]c2ccccc12,104
CC1(C)CO/C(=C/C(=O)c2ccncc2)N1,100
CNCC(O)Cn1c2c(c3ccccc31)CCCC2 (stereo unspecified),87
Cc1cc(C(=O)NCc2ccc3c(c2)OCO3)nc2c1c(C)nn2-c1ccccc1Cl,106
CC1CCN(Cn2c(=S)oc3ccccc32)CC1,100
O=C(Nc1cc2ccccc2oc1=O)c1ccc(Cl)cc1,97
Cc1ccc(-c2c(O)c3cc(C)c(C)cc3c3oc(=O)sc23)cc1,100
C=CCn1c(-c2cccc(C)c2)nc2ccccc21,92
COc1nc(NC(C)(C)C)nc(Oc2ccc(=O)n(C)n2)n1,105
COC(=O)c1cc(S(=O)(=O)NC(C)(C)C)cn1C,99
O=C1NC(=O)C(CCc2ccncc2)(Cc2ccc(Br)s2)C(=O)N1,100
COc1ccc(/C=C/C(=O)Nc2cc(C)nc3ccccc23)cc1OC,92
Cn1c(SCc2ccoc2C(=O)O)nnc1-c1ccccc1,101
CCSc1nnc(NC(=O)CCC(=O)OC2CCC(C)C(C)C2)s1 (stereo unspecified),98
CS(=O)(=O)NCc1cccc2ccccc12,100
NNC(=O)c1ccc(Oc2cc(Cl)cc(Cl)c2)o1,98
Cc1nc(SC(C(=O)O)c2ccccc2)cc(-c2ccccc2)n1 (stereo unspecified),94

(continued)
mol,Vaccinia pol inh
CCS(=O)(=O)Nc1cccc(C(=O)CC2(O)C(=O)Nc3ccccc32)c1 (stereo unspecified),97
Ic1ccc(Nc2nc(Nc3ccccc3)nc(N3CCOCC3)n2)cc1,100
CCOC(=O)c1ccc(NC(=O)c2cccc3c2C(=O)N(Cc2cccnc2)C3)cc1,103
O=C(Nc1ncccn1)c1cc(-c2ccc(F)cc2)nc2ccccc12,99
CCN(CC)c1ncc2c(NCc3ccccc3)nc(SCc3ccccc3)nc2n1,110
Cc1cc(NS(=O)(=O)c2ccc(F)c(Cl)c2)no1,92
N#CC1(Nc2cccc(C(F)(F)F)c2)CCCCCC1,108
O=C(COC(=O)Cn1cnc2ccccc21)Nc1c(F)cccc1F,102
O=C(Nc1ccc2nc(SCC(=O)N3CCOCC3)sc2c1)c1ccc(Cl)cc1Cl,100
CSc1nc2ccc3nc(N)sc3c2s1,99
CCc1ccccc1NC(=O)CSc1nc2c(c(=O)n(C)c(=O)n2C)n1C,100
CCOC(=O)c1c(Sc2ccccc2)cnn1C(=O)Nc1cccc(Cl)c1,101
Cn1nc(-c2ccc(OCC(=O)N3CCN(Cc4ccccc4)CC3)cc2)c2ccccc2c1=O,100
CCOc1ccccc1C(=O)N(CC#N)CC#N,96
c1cncc(-c2nc(NCCN3CCOCC3)c3ccccc3n2)c1,93
Cc1cc(C)c(COc2ccc3c(c2C)OC(C)(C)CC3=O)c(C)c1,104
N#CC1CN(CCc2ccccc2)CN(CCc2ccccc2)C1,106
CCN(Cc1ccccc1)c1ccc(/C=N/n2cnnc2)cc1,104
COc1ccc(CN(CCC(c2ccccc2)c2ccco2)C(C)=O)cc1 (stereo unspecified),100
Cn1c(SCC(=O)c2ccccc2)nnc1-c1cccs1,116
Cn1cccc1Cc1nnc(SCC(=O)N2CCCc3ccccc32)n1-c1ccc(F)cc1,95
O=C(Cc1ccccc1)Nc1ccc(NC(=O)c2cccs2)cc1,100
CC(C)CN(CC(C)C)S(=O)(=O)N1CCC(C(=O)NCc2cccs2)CC1,107
O=S(=O)(/C=C/c1ccccc1)N1CCN(c2ccc(F)cc2)CC1,98

Exported as labelled records: part of the list above.
> COc1ccc(CN(CCC(c2ccccc2)c2ccco2)C(C)=O)cc1 (stereo unspecified)
  Vaccinia pol inh: 100
> O=S(=O)(/C=C/c1ccccc1)N1CCN(c2ccc(F)cc2)CC1
  Vaccinia pol inh: 98
> Cn1cccc1Cc1nnc(SCC(=O)N2CCCc3ccccc32)n1-c1ccc(F)cc1
  Vaccinia pol inh: 95
